# Screening results deposited in PubChem by several laboratories.
# CSC inhib: cancer stem cell viability inhibitors, primary screen, luminescence; cancer stem cell-like cells viability; inhibition, % at 7.5 µM; 300,000 tested, 1.1% active;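 active = mean at 75% or more and at least half the replicates too; tested in HMLE shEcad cells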;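 also: 0% = median of negative and 100% = median of positive control wells; the first replicate is given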
# MT1-MMP act inh: blockers of MT1-MMP proenzyme processing, primary screen, HT1080 RFP-PRO-GFP cells, GFP/RFP fluorescence. GFP/RFP ratio fluorescence, overnight; percent of plate control window, DMSO zero. 360,000 tested, 0.061% active. GFP/RFP ratio change, % at 20 µM. Matrix metalloproteinase-14 (Homo sapiens), P50281. AID 651647, 2012;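 active = GFP/RFP ratio change of at least 30% with cell ATP level not reduced by more than half and red fluorescence within 50% of control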; also: strong numbers were not always called active
#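 Material: RFP-PRO-GFP reporter HT1080 cells. Dosing: single-point 20 µM compound, 1% DMSO. Controls: DMSO and RFP-L50D-GFP cell wells. Timing: cells overnight before dosing, compound overnight, 37 °C, 5% CO2. Measure: GFP/RFP fluorescence ratio.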
# PABP FP inh: PABP poly(A) RNA binding inhibitors, primary screen, biochemical, fluorescence polarization, uHTS; Polyadenylate-binding protein 1 (Homo sapiens), P11940; inhibition, % at 35 µM; 290,000 tested, 1% active; AID 2014, 2009;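 active = 50% or more with normal probe brightness, or confirmed in later tests; about a fifth of its hits are not listed in these tables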;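 also: calls also rest on retests at 20 µM and on dose response follow-up; controls were probe without protein and protein plus probe with vehicle; some compounds called inactive have numbers as strong as hits; many hits fall short of the cut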
# Target sequence (P11940 whole entry, looked up): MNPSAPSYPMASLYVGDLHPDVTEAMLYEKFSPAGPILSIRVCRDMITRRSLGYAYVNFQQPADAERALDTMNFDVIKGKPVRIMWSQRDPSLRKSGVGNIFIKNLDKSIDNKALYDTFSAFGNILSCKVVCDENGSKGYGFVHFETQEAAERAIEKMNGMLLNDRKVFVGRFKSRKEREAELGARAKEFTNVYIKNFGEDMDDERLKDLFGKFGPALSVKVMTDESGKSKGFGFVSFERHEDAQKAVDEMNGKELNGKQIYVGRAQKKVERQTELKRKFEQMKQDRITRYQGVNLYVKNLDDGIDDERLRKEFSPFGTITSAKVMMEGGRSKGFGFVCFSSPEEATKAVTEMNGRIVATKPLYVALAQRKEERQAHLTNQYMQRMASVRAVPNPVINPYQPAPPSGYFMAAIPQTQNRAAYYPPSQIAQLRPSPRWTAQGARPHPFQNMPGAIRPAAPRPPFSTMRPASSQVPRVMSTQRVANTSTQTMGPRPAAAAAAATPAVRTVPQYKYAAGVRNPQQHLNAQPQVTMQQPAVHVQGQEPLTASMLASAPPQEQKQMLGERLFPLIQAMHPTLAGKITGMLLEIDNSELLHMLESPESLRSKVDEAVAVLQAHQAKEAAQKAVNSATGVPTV
# eIF4H inh: human eIF4H binding inhibitors, primary screen, translation initiation inhibitor project, biochemical, uHTS, fluorescence polarization; Eukaryotic translation initiation factor 4H (Homo sapiens), Q15056; eIF4H fluorescence polarization binding assay; inhibition, % at 35 µM; 290,000 tested, 0.94% active; AID 2012, 2009;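 active = 50% or more with normal probe brightness, or confirmed in later tests; about a fifth of its hits are not listed in these tables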;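 also: calls also rest on retests at 20 µM and on dose response follow-up; 0% = protein and probe with vehicle and 100% = probe without protein; strong numbers were not always called active; many hits fall short of the cut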
# Rce1 inhib: yeast Rce1p protease inhibitors, primary screen, biochemical, fluorescence, cell-free homogeneous | CAAX prenyl protease 2 (Saccharomyces cerevisiae (strain ATCC 204508 / S288c)), Q03530 | yeast membranes, quenched prenylated peptide cleavage fluorescence | calls only | 290,000 tested, 0.27% active;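 active = fall in fluorescence gain of 50% or more versus controls, with final raw signal at or below 3038400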;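 also: plate controls were neutral control wells for no effect and wells lacking membranes for full effect; tested at 10 µM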
# Target sequence (Q03530 whole entry, looked up): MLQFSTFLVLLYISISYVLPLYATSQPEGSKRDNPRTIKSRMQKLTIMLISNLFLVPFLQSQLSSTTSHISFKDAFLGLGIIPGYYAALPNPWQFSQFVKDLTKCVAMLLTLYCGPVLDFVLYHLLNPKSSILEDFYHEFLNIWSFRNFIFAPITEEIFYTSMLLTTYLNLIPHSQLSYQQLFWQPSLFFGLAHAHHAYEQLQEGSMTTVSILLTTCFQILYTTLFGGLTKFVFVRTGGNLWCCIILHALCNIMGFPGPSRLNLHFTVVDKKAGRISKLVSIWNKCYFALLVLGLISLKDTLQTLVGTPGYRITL
# Yeast UUG start: modulators of yeast start codon fidelity, primary screen, whole organism, S. cerevisiae, single point, plate reader; S. cerevisiae UUG-firefly luciferase reporter, luminescence/redox ratio; activity score, % at 18.7 µM; 350,000 tested, 0.13% active; AID 602363, 2012;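 active = replicate mean at a twofold rise or more, about +100% in these data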;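 also: firefly luciferase made from a UUG start codon reports start codon fidelity; reporter light over untreated wells divided by growth signal over untreated wells; some hits fall short of that in this replicate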
# Env fusion inh: inhibitors of HIV-1 Env-driven cell-cell fusion, primary screen, HeLa-JRFL effector, CEM21 target cells, luciferase; inhibition, % at 12.3 µM; 360,000 tested, 1.1% active; AID 651610, 2012;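 active = mean replicate inhibition score of at least 50 and every replicate individually at or above 50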;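 also: 0% = plate neutral controls and 100% = maraviroc near 300 nM; one replicate is shown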
# MT1-MMP act inh RFP: second read-out of MT1-MMP act inh, no call of its own (marks repeat the call); RFP signal change, %; measured here: RFP expression control read;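 0 = vehicle wells; hits needed this value within 50% of zero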
# An asterisk follows results filed as active; i = inactive; nt = not tested or not shown.
SMILES,CSC inhib,MT1-MMP act inh,MT1-MMP act inh RFP,PABP FP inh,eIF4H inh,Rce1 inhib,Yeast UUG start,Env fusion inh
O=C(CSc1nnc2ccccn12)NNC(=O)c1cccc([N+](=O)[O-])c1,nt,1,2,nt,nt,nt,-8,10
CCCCn1c(CN2CCN(C(=O)OCC)CC2)nc2c1c(=O)n(C)c(=O)n2C,-5,7,-7,-8,-1,i,-11,17
Cc1ccc(S(=O)(=O)N2CCC(=O)N(C(COCc3ccc(Cl)cc3)Cc3ccccc3)CC2)cc1 (stereo unspecified),20,4,-11,3,-10,i,-11,7
CC(=C/c1ccc(C(C)C)cc1)/C=N/NC(=O)c1ccncc1,-1,3,-1,-11,3,i,nt,-45
O=C(c1ccco1)N1CCCN(Cc2nc(-c3cccs3)no2)CC1,1,0,-2,5,6,i,nt,0
O=C(CC1C(=O)NCCN1Cc1cccc(Oc2ccccc2)c1)NCCc1ccncc1 (stereo unspecified),47,-2,-4,18,4,i,5,18
CC(=O)NC(c1ccc(F)c(F)c1)c1nc(-c2ccc3c(c2)OCO3)cs1 (stereo unspecified),nt,-4,-5,nt,nt,nt,-13,-2
COc1ccccc1OC(C)C(=O)Nc1nc(-c2ccc(S(=O)(=O)N3CCOCC3)cc2)cs1 (stereo unspecified),8,0,-12,0,-8,i,-14,60*
CCOc1ccc(Br)cc1/C=N/O,-13,2,2,-13,-10,i,-24,nt
CCC(CC)c1nnc(NC(=O)CCc2ccccc2OC)s1,-2,2,0,2,-10,i,-15,-7
S=c1[nH]nc(-c2ccc3ccccc3n2)n1Cc1ccccc1,-8,3,-1,0,9,i,nt,-4
Cc1cnc(C(=O)OCC(=O)NC(=O)NC(C)C)cn1,-9,1,7,-4,10,i,-5,nt
CCN1CCN(C(c2cccs2)C(C)NS(=O)(=O)c2ccc(Br)cc2)CC1 (stereo unspecified),-4,-8,2,-8,2,i,12,-35
CCc1cccc(CC)c1N1C(=O)CC(Sc2ccccc2N)C1=O (stereo unspecified),nt,0,1,nt,nt,nt,-10,-7
COc1ccc(C(=O)N2CCN(CCNC(=O)C(=O)Nc3ccc(F)cc3)CC2)cc1,-2,6,3,0,-4,i,-16,-21
CC(SCc1ccccc1)C(=O)Nc1ccccc1 (stereo unspecified),-7,1,0,-5,0,i,-21,1
COCCOC(=O)C1=C(C)NC2=C(C(=O)CCC2)C1c1ccc2c(c1)OCO2 (stereo unspecified),-12,5,-1,5,-14,i,nt,nt
O=CNC1CCCc2c1[nH]c1ccc(Cl)cc21 (stereo unspecified),-11,3,4,2,6,i,-17,9
NS(=O)(=O)c1ccc(NC(=O)CSc2cn[nH]n2)cc1,-11,4,4,-4,-6,i,-14,15
O=C(C1CCCCC1)N1C[C@H](n2cc(C3CC3)nn2)[C@@H](O)C[C@@H]1c1ccccc1,nt,-1,0,nt,nt,nt,-12,-3
Cc1ccccc1CS(=O)(=O)c1ccc(C(=O)N2CCC(C)CC2)cc1[N+](=O)[O-],17,-8,-7,1,9,i,nt,10
CCCC(C(=O)NC(C)(C)C)N(CC1CCCO1)C(=O)CNS(=O)(=O)c1ccc(F)cc1 (stereo unspecified),-7,-3,1,5,9,i,-13,8
CCc1cc(=O)oc2cc(OCC(=O)NCCCN3CCOCC3)c(Cl)cc12,2,0,-4,6,-1,i,-11,3
Cc1ccc(SCC(=O)OCC(=O)N(CCC#N)c2ccccc2)cc1,nt,-2,2,nt,nt,nt,-15,5
COCCn1c(SCC(=O)N2CCCCCC2)nc2c([nH]c3ccccc32)c1=O,-2,-7,-10,-3,3,i,-20,11

# Looked up above.
# COc1ccc(C(=O)N2CCN(CCNC(=O)C(=O)Nc3ccc(F)cc3)CC2)cc1 in PABP FP inh reads 0
# Cc1ccc(S(=O)(=O)N2CCC(=O)N(C(COCc3ccc(Cl)cc3)Cc3ccccc3)CC2)cc1 (stereo unspecified) in Env fusion inh reads 7

# Record cards, from the list above. Order of values: CSC inhib | MT1-MMP act inh | MT1-MMP act inh RFP | PABP FP inh | eIF4H inh | Rce1 inhib | Yeast UUG start | Env fusion inh
# `COCCn1c(SCC(=O)N2CCCCCC2)nc2c([nH]c3ccccc32)c1=O` as listed: -2 | -7 | -10 | -3 | 3 | i | -20 | 11
# `CCc1cc(=O)oc2cc(OCC(=O)NCCCN3CCOCC3)c(Cl)cc12` as listed: 2 | 0 | -4 | 6 | -1 | i | -11 | 3

# (listing goes on)
SMILES,CSC inhib,MT1-MMP act inh,MT1-MMP act inh RFP,PABP FP inh,eIF4H inh,Rce1 inhib,Yeast UUG start,Env fusion inh
COc1ccc(-c2oc(=O)c3cc(OC)c(OC)cc3c2C#CCCCO)cc1,24,12,11,nt,nt,nt,-4,-27
COc1ccc(/C=N/n2cnnc2SCc2ccc(OC)cc2)cc1,-14,2,0,-8,0,i,-14,nt
Cc1ccc2c(C)c(C(=O)NCC(C)(C)N3CCOCC3)oc2c1C,56,0,-1,2,-14,i,-1,21
CCOc1cccc(C(=O)Nc2cccnc2)c1,-16,0,2,7,4,i,-7,nt
CCCC1=C(C(=O)OCC)C(c2cc(Cl)cc(OC)c2OCc2ccccc2)NC(=O)N1 (stereo unspecified),42,-4,-7,5,2,i,nt,10
CC1CCN(S(=O)(=O)c2ccc3c(c2)N(CC(=O)NCCCN2CCCC(C)C2)C(=O)CS3)CC1 (stereo unspecified),-9,0,1,nt,nt,i,8,19
CC(=O)Nc1ccc(CNc2nc3cc(-c4ccc(F)cc4)sc3c(=O)n2C)cc1,nt,-3,-23,nt,nt,nt,-7,9
O=C1C2C3C=CC(C4CC34)C2C(=O)N1/N=C/c1ccc(-c2cccc([N+](=O)[O-])c2)o1 (stereo unspecified),40,6,4,-1,11,i,7,-21
Cc1ccc(NC(=O)C2CC(=O)n3ncnc3N2)cc1C (stereo unspecified),-4,1,2,-3,-14,i,-21,-11
CC1=C(C)SC(=C(C#N)c2nnc(N3CCOCC3)n2-c2ccccc2)S1,11,nt,nt,0,-7,i,nt,nt
CCN1CCN(CCCNC(=O)Cn2cc3c(n2)CCCC3)CC1,-3,8,6,1,-3,i,-4,13
COc1ccc(C=O)cc1OC(=O)C1(C)Cc2ccccc2C(=O)O1 (stereo unspecified),-3,-1,11,6,1,i,1,1
CCC(CO)NC(=O)c1ccccc1C(F)(F)F (stereo unspecified),-5,2,7,-5,-13,i,nt,3
O=C(Nc1nc2c(s1)C(=O)CCC2)c1ccccc1,5,3,2,-13,-1,i,nt,nt
O=C(c1ccco1)N1CCN(C(=O)c2oc(=O)c3ccccc3c2-c2ccccc2)CC1,-7,-1,1,-3,-2,i,-10,14
COc1ccc(CCNC(=O)Cn2cccc2C(=O)c2ccccc2)c(OC)c1,12,-1,1,-7,1,i,nt,13
Cc1ccc(C(=O)N2CCN(c3ccccn3)CC2)cc1[N+](=O)[O-],-3,2,-7,-6,0,i,nt,3
CN(C(=O)CSc1ncn[nH]1)C1(C#N)CCCCC1,3,-1,4,nt,nt,nt,-26,0
Cc1cc(C)n(CC(C)NC(=O)CCc2nnc(CCc3ccccc3)o2)n1 (stereo unspecified),-10,-2,-1,9,5,i,-1,10
CCN(CC(=O)NCc1cccs1)C(=O)c1cc(Br)ccc1O,8,2,-1,nt,nt,nt,-8,nt
Cc1ccc(-n2nc3c(c2NC(=O)c2c(-c4ccccc4Cl)noc2C)CS(=O)(=O)C3)c(C)c1,6,1,-15,35,-12,i,5,nt
O=C(CN1CCN(CC(=O)Nc2ccc(-c3ccccc3)cc2)CC1)Nc1ccc(F)cc1,-20,1,1,3,-11,i,-4,-9
O=C(CNC(=O)c1ccccc1)OCc1nnc(-c2ccccc2)o1,-6,-4,1,nt,nt,i,-7,-10
CC1CCCC(NC(=O)COC(=O)/C=C/c2ccc([N+](=O)[O-])cc2)C1C (stereo unspecified),0,3,1,nt,nt,nt,-12,nt
C=CCNc1ncnc2c1ncn2[C@H]1CN(Cc2ccccc2)C[C@@H](CO)O1,nt,2,1,nt,nt,nt,-2,1
SMILES,CSC inhib,MT1-MMP act inh,MT1-MMP act inh RFP,PABP FP inh,eIF4H inh,Rce1 inhib,Yeast UUG start,Env fusion inh
NS(=O)(=O)c1ccc(CCNC(=O)C(c2ccccc2)c2ccccc2)cc1,-4,2,1,2,9,i,-27,0
CCCC(=O)Nc1ccc(NC(=O)CCc2ccccc2)cn1,-7,2,2,-7,-15,i,-16,-9
CC(=O)c1cccc(Nc2nc(-c3sc(C)nc3C)cs2)c1,16,6,-14,3,-6,i,-18,-1
COc1ccc(OCC(=O)Nc2ccc(S(=O)(=O)N3CCCC3)cc2)cc1,-8,4,1,-6,5,i,2,15
CC(C)Cn1cc(F)c(=O)n(CC(C)C)c1=O,2,-2,-3,11,-4,i,nt,7
O=C(Nc1ccc2ncccc2c1)c1ccccc1,-11,-1,3,nt,nt,nt,-30,-5
CCC(=O)N/C(=N/c1nc(C)cc(C)n1)Nc1ccccc1,-7,-2,-1,8,-11,i,-8,5
COCCCNC(=O)c1cc2c(=O)n(C)c3ccccc3c2n1C,13,3,2,-9,-7,i,-8,-26
COc1ccc(N2CCc3c(C)nc4c(OC)cc(OC)cc4c32)cc1,nt,0,-5,-3,-4,i,nt,5
O=C(COC(=O)Cn1[nH]c(=O)c2ccccc2c1=O)Nc1c(Cl)cccc1C(F)(F)F,-1,3,7,nt,nt,nt,-3,13
CCOc1ccc(CNC(=S)N/N=C/c2cccnc2)cc1,-11,6,0,-2,-2,i,nt,4
O=C(c1nn2c(C(F)(F)F)cc(-c3ccco3)nc2c1Br)N1CCCc2ccccc21,68,-15,-10,3,35,i,-4,nt
O=C(NCCc1ccccc1)c1ccc(-c2ccc(F)cc2)o1,12,nt,nt,-2,-10,i,-1,-12
COc1ccc(CC(=O)N2CC(C)CC(C)C2)cc1OC (stereo unspecified),-2,-1,1,5,-15,i,nt,nt
CCn1c(/C=C/c2ccc(F)cc2)nc2ccccc2c1=O,11,-4,-4,0,-18,i,-14,-3
CCOC(=O)C1CCCN(C(=O)c2ccc(-c3ccccc3Cl)o2)C1 (stereo unspecified),nt,-1,-4,nt,nt,nt,-4,-26
COc1ccc2[nH]c3c(N4CCc5ccccc5C4)ncnc3c2c1,61,13,-23,10,0,i,-16,-52
Cc1cc(C)cc(N(CC(=O)N2CC=C(c3ccccc3)CC2)S(=O)(=O)c2c(C)noc2C)c1,22,-5,-12,2,2,i,-6,-44
COc1ccc(NC(=O)/C=C/c2ccc(OC(F)F)cc2)cn1,nt,7,-8,6,6,i,-31,7
Cc1ccc(S(=O)(=O)c2nnn3c2nc(N2CCC(C(N)=O)CC2)c2ccccc23)cc1,-10,-4,1,8,-10,i,-6,2
CCc1ccc(C(=O)CSc2nc(C)cc(=O)[nH]2)cc1,nt,-2,-1,6,-6,i,nt,-5
Cc1c(-c2ccc(O)cc2)nc2nc(-c3ccccc3)c(-c3ccccc3)nn12,2,nt,nt,-6,12,i,nt,nt
COc1cccc2c1Oc1ncccc1N(C(=O)CCC(=O)NCc1ccccc1Cl)C2,1,1,0,1,34,i,-15,17
COc1ccc(NC(=S)N2CCN(C(=O)C3CCCO3)CC2)c(OC)c1 (stereo unspecified),17,0,3,-2,3,i,nt,-10
COc1cc(OC)nc(Nc2nc(C(N)Cc3ccc(C(F)(F)F)cc3)cs2)n1 (stereo unspecified),nt,-3,-1,nt,nt,nt,2,18
CC(C)CN(C(=O)CN1CCN(c2ccc(O)cc2)CC1)c1c(N)n(CC(C)C)c(=O)[nH]c1=O,nt,-2,5,-1,14,i,nt,28
COc1ccccc1NC(=O)COC(=O)c1ccc(N2CCCC2=O)cc1,-6,-2,-3,nt,nt,nt,-17,10
